Compound activity from PubChem.
Ran importin = RanGTP/importin-beta interaction disruptors – biochemical, CFP-Ran/YFP-importin-beta FRET, RCC1, cell-free, primary screen (AID 434961) | CFP-Ran/YFP-importin-beta FRET, cell-free; hits give high values | inhibition, % | 7,700 tested, 0.2% active;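 active means more than half of the replicate wells above 15% inhibition; inconclusive means exactly half above it; inactive means fewer than half above it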;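 further: 0% = DMSO wells and 100% inhibition = RanGDP control wells on each plate; stock of unstated strength diluted about 400-fold; mean of two wells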
* marks the source's active call; other numbers are inactive results; u = inconclusive.

SMILES	Ran importin
C[C@@H]1CCCCO[C@H](CN(C)C(=O)Cc2ccccc2)[C@@H](C)CN([C@H](C)CO)C(=O)c2cc(NC(=O)Nc3ccccc3)ccc2O1	-2.1
C[C@@H]1CN([C@@H](C)CO)C(=O)c2cc(N(C)C)ccc2O[C@H]1CN(C)Cc1ccncc1	2.8
C[C@@H]1CN([C@@H](C)CO)C(=O)c2cccc(NS(=O)(=O)c3ccc(Cl)cc3)c2O[C@H]1CN(C)C(=O)Nc1ccc(F)cc1	-3.7
C[C@H]1CN([C@@H](C)CO)C(=O)c2cccc(NS(C)(=O)=O)c2O[C@@H]1CN(C)C(=O)Nc1ccccc1	-0.4
COc1ccc(S(=O)(=O)Nc2ccc3c(c2)C(=O)N([C@H](C)CO)C[C@H](C)[C@H](CN(C)S(=O)(=O)c2ccc(OC)cc2)O3)cc1	0.1
C[C@H](CO)N1C[C@H](C)[C@@H](CN(C)C(=O)Nc2ccccc2)OCCCC[C@H](C)Oc2ccc(NC(=O)CCC(F)(F)F)cc2C1=O	u
C[C@H](CO)N1C[C@H](C)[C@@H](CN(C)C(=O)Nc2ccccc2)Oc2ccc(NS(C)(=O)=O)cc2CC1=O	0.7
C[C@@H]1CN([C@H](C)CO)C(=O)c2cc(NS(=O)(=O)c3ccccc3)ccc2O[C@@H](C)CCCCO[C@H]1CN(C)C(=O)Nc1ccc(F)cc1	5.6
C[C@H]1CN([C@@H](C)CO)C(=O)c2cc(NS(=O)(=O)c3cn(C)cn3)ccc2O[C@@H]1CN(C)C	1.9
C[C@@H]1CN([C@@H](C)CO)C(=O)c2cccc(NS(C)(=O)=O)c2O[C@@H]1CN(C)C(=O)Nc1ccc(C(F)(F)F)cc1	-3.3

Copied from above for reference:
SMILES	Ran importin
C[C@H](CO)N1C[C@H](C)[C@@H](CN(C)C(=O)Nc2ccccc2)Oc2ccc(NS(C)(=O)=O)cc2CC1=O	0.7
C[C@@H]1CN([C@H](C)CO)C(=O)c2cc(NS(=O)(=O)c3ccccc3)ccc2O[C@@H](C)CCCCO[C@H]1CN(C)C(=O)Nc1ccc(F)cc1	5.6
C[C@H]1CN([C@@H](C)CO)C(=O)c2cc(NS(=O)(=O)c3cn(C)cn3)ccc2O[C@@H]1CN(C)C	1.9
C[C@@H]1CN([C@@H](C)CO)C(=O)c2cccc(NS(C)(=O)=O)c2O[C@@H]1CN(C)C(=O)Nc1ccc(C(F)(F)F)cc1	-3.3

Additional entries follow.
SMILES	Ran importin
C[C@H](CO)N1C[C@H](C)[C@H](CN(C)C(=O)Nc2ccc3c(c2)OCO3)OCc2cn(nn2)CCCC1=O	1.5
COc1ccc(S(=O)(=O)N(C)C[C@@H]2Oc3c(NC(=O)C4CCOCC4)cccc3C(=O)N([C@H](C)CO)C[C@H]2C)cc1	2.4
C[C@H](CO)N1C[C@H](C)[C@@H](CN(C)C(=O)Nc2ccc(F)cc2)Oc2ccc(NC(=O)Nc3ccc(F)cc3)cc2C1=O	-4.1
C[C@H]1CCCCO[C@H](CN(C)S(=O)(=O)c2ccccc2)[C@@H](C)CN([C@@H](C)CO)C(=O)c2cc(NC(=O)CCCN(C)C)ccc2O1	-3.6
CNC[C@H]1Oc2ccc(NC(=O)Cc3cn(C)c4ccccc34)cc2CC(=O)N([C@H](C)CO)C[C@H]1C	1.8
C[C@H]1CN([C@@H](C)CO)C(=O)c2cccc(NS(C)(=O)=O)c2O[C@@H]1CN(C)C(=O)Nc1cccc2ccccc12	8.5
C[C@H]1CN([C@@H](C)CO)C(=O)c2cc(NC(=O)CCCN(C)C)ccc2O[C@H]1CN(C)C	-2.9
C[C@@H]1CN([C@H](C)CO)C(=O)Cc2cc(NS(C)(=O)=O)ccc2O[C@@H]1CN(C)C(=O)NC1CCCCC1	-2.4
C[C@H]1CN([C@@H](C)CO)C(=O)Cc2cc(NC(=O)Nc3ccccc3)ccc2O[C@H]1CN(C)C(=O)Nc1ccccc1	-2.2
C[C@@H]1CCCCO[C@@H](CN(C)C(=O)Nc2ccccc2)[C@H](C)CN([C@H](C)CO)C(=O)c2cc(N(C)C)ccc2O1	0.3
C[C@H](CO)N1C[C@H](C)[C@@H](CN(C)C(=O)C2CC2)OCc2cn(nn2)CCCC1=O	1.9
Cc1noc(C)c1NC(=O)Nc1cccc2c1O[C@@H](CN(C)S(=O)(=O)c1ccc(Cl)cc1)[C@@H](C)CN([C@H](C)CO)C2=O	u
C[C@H](CO)N1C[C@H](C)[C@H](CN(C)S(=O)(=O)c2ccccc2)Oc2ncc(/C=C/c3ccccc3)cc2C1=O	-2.4
C[C@@H]1CN([C@@H](C)CO)C(=O)c2cccc(NS(=O)(=O)c3ccc(Cl)cc3)c2O[C@H]1CN(C)Cc1ccc(C(=O)O)cc1	-0.1
Cc1cc(C(=O)Nc2cccc3c2O[C@H](CN(C)C(=O)Nc2ccccc2)[C@H](C)CN([C@H](C)CO)C3=O)n(C)n1	3.5
C[C@H]1CN([C@@H](C)CO)C(=O)Cc2cc(NS(C)(=O)=O)ccc2O[C@H]1CN(C)C(=O)NC1CCCCC1	4.0
CCCC(O)C#Cc1cnc2c(c1)C(=O)N([C@H](C)CO)C[C@H](C)[C@H](CN(C)C(=O)Nc1cccc3ccccc13)O2 (some centres not stated)	6.0
COc1ccc(S(=O)(=O)N(C)C[C@@H]2Oc3c(NC(=O)NC4CCCCC4)cccc3C(=O)N([C@H](C)CO)C[C@@H]2C)cc1	-2.0
C[C@H](CO)N1C[C@H](C)[C@H](CN(C)C(=O)Nc2cccc3ccccc23)Oc2ccc(NC(=O)C3CC3)cc2C1=O	6.3
C[C@@H]1CCCCO[C@@H](CN(C)C(=O)c2ccncc2)[C@@H](C)CN([C@H](C)CO)C(=O)c2cc(NC(=O)Cc3ccccc3)ccc2O1	-10
C[C@@H]1CN([C@@H](C)CO)C(=O)c2cc(NC(=O)c3ccncc3)ccc2O[C@@H](C)CCCCO[C@H]1CN(C)C(=O)CCC(F)(F)F	1.7
C[C@H](CO)N1C[C@H](C)[C@@H](CN(C)Cc2ccc(C(F)(F)F)cc2)Oc2c(NS(=O)(=O)c3ccc(F)cc3)cccc2C1=O	u
C[C@H]1CN([C@@H](C)CO)C(=O)c2cc(NC(=O)Nc3ccc4c(c3)OCO4)ccc2O[C@@H]1CN(C)S(=O)(=O)c1ccc(F)cc1	-6.0
C[C@@H]1CCCCO[C@H](CN(C)C(=O)Nc2ccccc2)[C@@H](C)CN([C@@H](C)CO)C(=O)c2cc(NS(C)(=O)=O)ccc2O1	-1.3
CNC[C@H]1Oc2ccc(NC(=O)CCC(F)(F)F)cc2CC(=O)N([C@@H](C)CO)C[C@H]1C	-1.7
C[C@H]1CN([C@@H](C)CO)C(=O)Cc2cc(NC(=O)Nc3ccccc3)ccc2O[C@@H]1CN(C)C(=O)Nc1ccc(C(F)(F)F)cc1	-0.4
CNC[C@H]1Oc2c(N)cccc2C(=O)N([C@@H](C)CO)C[C@H]1C	2.5
Cc1noc(C)c1NC(=O)N(C)C[C@@H]1Oc2ccc(NC(=O)Nc3cccc4ccccc34)cc2C(=O)N([C@H](C)CO)C[C@H]1C	-0.1
COc1ccc(CN(C)C[C@H]2Oc3c(NS(C)(=O)=O)cccc3C(=O)N([C@H](C)CO)C[C@H]2C)cc1	-1.6
C[C@@H]1CCCCO[C@@H](CN(C)C)[C@@H](C)CN([C@H](C)CO)C(=O)c2cc(NC(=O)Nc3ccc(C(F)(F)F)cc3)ccc2O1	-1.9
C[C@H](CO)N1C[C@H](C)[C@@H](CN(C)S(=O)(=O)c2cccs2)OCCCC[C@H](C)Oc2ccc(NS(C)(=O)=O)cc2C1=O	0.0
C[C@H]1CN([C@@H](C)CO)C(=O)Cc2cc(NC(=O)Nc3ccc(C(F)(F)F)cc3)ccc2O[C@H]1CN(C)Cc1ccncc1	-2.3
C[C@@H]1CN([C@@H](C)CO)C(=O)Cc2cc(NC(=O)CCN3CCOCC3)ccc2O[C@H]1CN(C)S(=O)(=O)c1cccs1	-1.8
C[C@@H]1CN([C@@H](C)CO)C(=O)c2cc(NS(=O)(=O)c3ccc(Cl)cc3)ccc2O[C@H]1CN(C)C	-1.2
C[C@H](CO)N1C[C@H](C)[C@H](CN(C)C(=O)Nc2ccc3c(c2)OCO3)Oc2ccc(NC(=O)NC3CCCCC3)cc2C1=O	4.7
C[C@@H]1CN([C@@H](C)CO)C(=O)Cc2cc(NC(=O)Cc3ccccc3)ccc2O[C@H]1CN(C)CC1CC1	-1.7
C[C@@H]1CN([C@@H](C)CO)C(=O)c2cccc(NS(=O)(=O)c3cn(C)cn3)c2O[C@H]1CN(C)C	3.1
Cc1noc(C)c1S(=O)(=O)Nc1cccc2c1O[C@H](CN(C)C)[C@H](C)CN([C@@H](C)CO)C2=O	1.2
C[C@H]1CCCCO[C@H](CN(C)Cc2ccccc2)[C@@H](C)CN([C@@H](C)CO)C(=O)c2cc(NS(=O)(=O)c3ccccc3)ccc2O1	1.0
COc1ccc(S(=O)(=O)N(C)C[C@@H]2Oc3ccc(NC(=O)Nc4ccc5c(c4)OCO5)cc3CC(=O)N([C@H](C)CO)C[C@@H]2C)cc1	1.5
C[C@H](CO)N1C[C@H](C)[C@H](CN(C)S(=O)(=O)c2ccc(F)cc2)Oc2ncccc2C1=O	1.2
Cc1noc(C)c1S(=O)(=O)Nc1cccc2c1O[C@H](CN(C)Cc1ccc(C(=O)O)cc1)[C@H](C)CN([C@H](C)CO)C2=O	2.7
CNC[C@H]1Oc2ccc(NC(=O)c3ccncc3)cc2CC(=O)N([C@H](C)CO)C[C@@H]1C	7.8
CC(C)NC(=O)N(C)C[C@@H]1OCCCC[C@@H](C)Oc2ccc(NC(=O)Nc3ccccc3)cc2C(=O)N([C@@H](C)CO)C[C@H]1C	-2.8
C[C@H](CO)N1C[C@H](C)[C@@H](CN(C)S(=O)(=O)c2ccccc2)Oc2c(NC(=O)Nc3ccc(C(F)(F)F)cc3)cccc2C1=O	1.2
Cc1noc(C)c1NC(=O)Nc1ccc2c(c1)CC(=O)N([C@@H](C)CO)C[C@@H](C)[C@H](CN(C)S(=O)(=O)c1ccccc1)O2	1.7
C[C@H]1CN([C@@H](C)CO)C(=O)Cc2cc(NC(=O)Nc3ccc4c(c3)OCO4)ccc2O[C@@H]1CN(C)CC1CC1	-5.3
C[C@H](CO)N1C[C@H](C)[C@H](CN(C)S(=O)(=O)c2cccs2)Oc2ccc(N(C)C)cc2C1=O	-0.9
C[C@@H]1CN([C@H](C)CO)C(=O)CCCn2nncc2CO[C@@H]1CN(C)C(=O)Nc1ccc(C(C)(C)C)cc1	0.2
Cc1noc(C)c1NC(=O)N(C)C[C@@H]1OCCCC[C@@H](C)Oc2ccc(NS(=O)(=O)c3cn(C)cn3)cc2C(=O)N([C@@H](C)CO)C[C@H]1C	-1.3
CC(C)NC(=O)Nc1ccc2c(c1)C(=O)N([C@H](C)CO)C[C@H](C)[C@@H](CN(C)C)OCCCC[C@@H](C)O2	-2.8
C[C@@H]1CN([C@@H](C)CO)C(=O)c2cc(NC(=O)Nc3ccc(F)cc3)ccc2O[C@H]1CN(C)Cc1ccncc1	2.0
C[C@H](CO)N1C[C@H](C)[C@H](CN(C)Cc2ccccc2)Oc2c(NS(C)(=O)=O)cccc2C1=O	0.6

Exported with each value named: 4 of the compounds above
C[C@H](CO)N1C[C@H](C)[C@H](CN(C)S(=O)(=O)c2ccc(F)cc2)Oc2ncccc2C1=O
  Ran importin = 1.2

Cc1noc(C)c1S(=O)(=O)Nc1cccc2c1O[C@H](CN(C)Cc1ccc(C(=O)O)cc1)[C@H](C)CN([C@H](C)CO)C2=O
  Ran importin = 2.7

CNC[C@H]1Oc2ccc(NC(=O)c3ccncc3)cc2CC(=O)N([C@H](C)CO)C[C@@H]1C
  Ran importin = 7.8

CC(C)NC(=O)N(C)C[C@@H]1OCCCC[C@@H](C)Oc2ccc(NC(=O)Nc3ccccc3)cc2C(=O)N([C@@H](C)CO)C[C@H]1C
  Ran importin = -2.8

Not all compounds are listed, so the mix of outcomes need not match the whole.
